Compound activity deposited in PubChem by several laboratories.
PABP polyA inh = PABP poly(A) RNA binding inhibitors, primary screen, biochemical, fluorescence polarization, uHTS; 1% of 290,000 active; AID 2014, 2009; inhibition, % at 35 µM;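 active = 50% or more with normal probe brightness, or confirmed in later tests; about a fifth of its hits are not listed in these tables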;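 also: calls also rest on retests at 20 µM and on dose response follow-up; controls were probe without protein and protein plus probe with vehicle; some compounds called inactive have numbers as strong as hits; many hits fall short of the cut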
Target sequence (P11940 whole entry, looked up): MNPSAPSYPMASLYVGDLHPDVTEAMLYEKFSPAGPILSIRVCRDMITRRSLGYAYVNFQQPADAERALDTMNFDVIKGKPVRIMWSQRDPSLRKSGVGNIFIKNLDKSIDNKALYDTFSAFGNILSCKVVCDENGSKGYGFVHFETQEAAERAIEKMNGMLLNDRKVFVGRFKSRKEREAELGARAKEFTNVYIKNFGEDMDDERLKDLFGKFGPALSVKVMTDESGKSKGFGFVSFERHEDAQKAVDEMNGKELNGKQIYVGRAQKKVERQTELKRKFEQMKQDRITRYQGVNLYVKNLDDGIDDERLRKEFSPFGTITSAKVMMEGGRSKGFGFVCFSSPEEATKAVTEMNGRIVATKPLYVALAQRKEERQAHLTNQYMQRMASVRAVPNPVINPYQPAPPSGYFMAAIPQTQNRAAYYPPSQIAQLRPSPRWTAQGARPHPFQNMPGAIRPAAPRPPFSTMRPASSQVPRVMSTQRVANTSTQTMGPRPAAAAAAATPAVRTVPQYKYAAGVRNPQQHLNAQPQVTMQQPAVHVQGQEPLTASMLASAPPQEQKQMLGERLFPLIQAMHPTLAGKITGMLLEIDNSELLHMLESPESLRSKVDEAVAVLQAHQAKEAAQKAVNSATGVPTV
MT1-MMP act inh = blockers of MT1-MMP proenzyme processing, primary screen, HT1080 RFP-PRO-GFP cells, GFP/RFP fluorescence; Matrix metalloproteinase-14 (Homo sapiens), P50281; GFP/RFP ratio fluorescence, overnight; percent of plate control window, DMSO zero; GFP/RFP ratio change, % at 20 µM; 0.061% of 360,000 active; AID 651647, 2012;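 active = GFP/RFP ratio change of at least 30% with cell ATP level not reduced by more than half and red fluorescence within 50% of control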; also: strong numbers were not always called active
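Compound: 20 µM single dose, 1% DMSO / System: HT1080 RFP-PRO-GFP cells / Controls: DMSO and RFP-L50D-GFP cell wells / Read-out basis: GFP/RFP fluorescence ratio / Schedule: overnight compound exposure at 37 °C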
Yeast UUG start = modulators of yeast start codon fidelity, primary screen, whole organism, S. cerevisiae, single point, plate reader | S. cerevisiae UUG-firefly luciferase reporter, luminescence/redox ratio | 0.13% of 350,000 active | activity score, % at 18.7 µM;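 active = replicate mean at a twofold rise or more, about +100% in these data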;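 also: firefly luciferase made from a UUG start codon reports start codon fidelity; reporter light over untreated wells divided by growth signal over untreated wells; some hits fall short of that in this replicate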
CSC inhib = cancer stem cell viability inhibitors, primary screen, luminescence | cancer stem cell-like cells viability | inhibition, % at 7.5 µM | 1.1% of 300,000 active | AID 2717, 2010;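 active = mean at 75% or more and at least half the replicates too; tested in HMLE shEcad cells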;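 also: 0% = median of negative and 100% = median of positive control wells; the first replicate is given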
eIF4H inh = human eIF4H binding inhibitors, primary screen, translation initiation inhibitor project, biochemical, uHTS, fluorescence polarization; Eukaryotic translation initiation factor 4H (Homo sapiens), Q15056; eIF4H fluorescence polarization binding assay; inhibition, % at 35 µM; 0.94% of 290,000 active;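 active = 50% or more with normal probe brightness, or confirmed in later tests; about a fifth of its hits are not listed in these tables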;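 also: calls also rest on retests at 20 µM and on dose response follow-up; 0% = protein and probe with vehicle and 100% = probe without protein; strong numbers were not always called active; many hits fall short of the cut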
Rce1 inh = yeast Rce1p protease inhibitors, primary screen, biochemical, fluorescence, cell-free homogeneous. calls only. CAAX prenyl protease 2 (Saccharomyces cerevisiae (strain ATCC 204508 / S288c)), Q03530. yeast membranes, quenched prenylated peptide cleavage fluorescence. 0.27% of 290,000 active;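 active = fall in fluorescence gain of 50% or more versus controls, with final raw signal at or below 3038400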;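 also: plate controls were neutral control wells for no effect and wells lacking membranes for full effect; tested at 10 µM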
HIV Env fusion = inhibitors of HIV-1 Env-driven cell-cell fusion, primary screen, HeLa-JRFL effector, CEM21 target cells, luciferase; 1.1% of 360,000 active; inhibition, % at 12.3 µM;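 active = mean replicate inhibition score of at least 50 and every replicate individually at or above 50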;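 also: 0% = plate neutral controls and 100% = maraviroc near 300 nM; one replicate is shown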
eIF4H inh retest = recorded beside eIF4H inh, whose call it bears; inhibition, %; compound at 20 µM; confirmation average;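 mean of two retest wells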
PABP polyA inh retest = recorded beside PABP polyA inh, whose call it bears; inhibition, %; compound at 20 µM; confirmation repeats;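 mean of two retest wells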
MT1-MMP act inh RFP = further read-out of MT1-MMP act inh, marked with its call; RFP signal change, %; measured here: RFP expression control read;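 0 = vehicle wells; hits needed this value within 50% of zero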
* hit, by the source's call; i = inactive; . = not tested or not shown; & = joins results of further samples. An excerpt (hit frequency here may not be typical).

SMILES | PABP polyA inh | MT1-MMP act inh | MT1-MMP act inh RFP | Yeast UUG start | CSC inhib | eIF4H inh | Rce1 inh | HIV Env fusion | others
Cc1ccc(CN(C)C(=O)c2cc(Br)c(Br)s2)o1 | 5 | -2 | 0 | -5 | 4 | 6 | . | 15
CC(=O)c1cccc(NC(=O)NNC(=O)c2ccc(Cl)cc2Cl)c1 | -7 | -5 | -4 | . | -19 | -4 | i | 18
CCC(c1ccccc1)c1nc(-c2ccccn2)no1 (configuration not stated) | 4 | 5 | 4 | -33 | . | -2 | i | .
COc1ccc(CCNC(=O)CN2CCN(Cc3ccccc3F)C2=O)cc1OC | 1 | 1 | 1 | 1 | -5 | 5 | i | 14
CCn1c(=O)c(C(=O)NCc2ccc(OC)c(OC)c2)c(O)c2ccccc21 | -3 | 4 | 0 | 10 | 5 | 3 | i | .
CN(C)c1ccc(NC(=O)Cc2ccccc2)c2ccccc12 | -3 | -6 | -4 | -9 | -9 | -2 | i | 6
CCOC(=O)c1ccc(NS(=O)(=O)c2ccc(-c3coc(C)n3)cc2)cc1 | 6 | 3 | 0 | -13 | -12 | 5 | i | 0
Cc1nnc(SCc2ccc(F)cc2)s1 | 1 | 1 | 6 | -3 | 11 | 1 | i | .
NC(=O)N/N=C/c1ccc([N+](=O)[O-])o1 | . | 2 | -3 | -3 | -2 | . | . | -63
COc1ccccc1NC(=O)NN1CCCCC1 | -2 | -4 | 3 | -10 | 1 | -14 | i | 3
CCN(C(=O)CSc1nc2nc(C)cc(C)n2n1)c1cccc(C)c1 | 2 | 9 | 5 | -8 | -9 | -2 | i | 12
CCn1c(SCC(=O)N2CCCc3ccccc32)nnc1-c1ccco1 | -9 | 2 | 5 | -1 | 10 | -11 | i | .
CC(C)(C)c1ccc(C(=O)NC2CCS(=O)(=O)C2)cc1 (configuration not stated) | 4 | -1 | 1 | -12 | . | 0 | i | -30
Cc1ccccc1CS(=O)(=O)Cc1ccc(C(=O)NCc2ccccn2)o1 | -1 | 0 | 2 | -33 | 1 | 16 | i | .
C[C@H](CO)N1C[C@H](C)[C@@H](CN(C)C)Oc2c(NC(=O)CCC(F)(F)F)cccc2C1=O | . | 1 | 0 | -13 | -18 | . | . | 23
O=C(NCCCCNC(=O)c1c(Cl)cccc1Cl)c1c(Cl)cccc1Cl | . | 1 | 2 | -9 | -3 | . | i | -3
CCc1ccc(/C=C/c2c[nH]c3ccccc23)[n+](CC)c1 | 0 | -107 | -29 | . | 18 | -2 | i | 51
O=S(=O)(c1cccs1)N1CCN(c2ccccc2F)CC1 | 12 | -2 | -3 | -19 | -20 | -2 | i | -5
Cc1cc(C(=O)CSc2nnc(C3CC3)n2C2CC2)c(C)n1C(C)C | . | -3 | 4 | -15 | . | . | . | 2
Cc1ccc(-n2cccc2/C=C2\C(=N)N3N=C(c4ccco4)SC3=NC2=O)cc1 | 2 | -6 | -2 | . | 41 | 81 | i | 7 | eIF4H inh retest=26;PABP polyA inh retest=-3
O=S(=O)(NCCCCCNS(=O)(=O)c1ccccc1)c1ccccc1 | 4 | -6 | 1 | 1&-2 | 1 | 3 | i | .
O=C(NCC(F)(F)F)Nc1nnc(C(F)(F)F)s1 | -1 | -3 | -5 | -14 | 1 | -8 | i | .
Cc1cccc(C)c1NC(=S)/C(=C(\[O-])c1cccs1)[n+]1ccccc1 | 4 | 2 | 2 | -20 | -3 | -1 | i | 15
COc1ccc(N(Cc2cc(=O)[nH]c3ccccc23)C(C)=O)cc1 | 0 | -8 | -6 | . | -20 | 3 | i | 20
O=C(c1ccc(Cl)cc1Cl)C1(n2cncn2)Oc2ccccc2C1O (configuration not stated) | -10 | -4 | 1 | -7 | -1 | -4 | i | 13

Brought forward from above: 3 compounds; new compounds follow.
SMILES | PABP polyA inh | MT1-MMP act inh | MT1-MMP act inh RFP | Yeast UUG start | CSC inhib | eIF4H inh | Rce1 inh | HIV Env fusion | others
Cc1cccc(C)c1NC(=S)/C(=C(\[O-])c1cccs1)[n+]1ccccc1 | 4 | 2 | 2 | -20 | -3 | -1 | i | 15
COc1ccc(N(Cc2cc(=O)[nH]c3ccccc23)C(C)=O)cc1 | 0 | -8 | -6 | . | -20 | 3 | i | 20
O=C(c1ccc(Cl)cc1Cl)C1(n2cncn2)Oc2ccccc2C1O (configuration not stated) | -10 | -4 | 1 | -7 | -1 | -4 | i | 13
Cc1ccc(S(=O)(=O)N(CCC(=O)O)Cc2ccc(Cl)cc2)cc1 | -9 | 3 | 7 | -12 | . | 0 | i | .
Cc1ccc(C(=O)NNC(=O)CCC(=O)Nc2cc(C)on2)cc1 | 12 | 2 | 7 | -11 | 9 | 0 | i | -45
NC(=O)c1cccc(-c2ccnc3c2CC(C(=O)NCc2ccccc2)O3)c1 (configuration not stated) | . | 19 | 1 | 1 | . | . | . | -38
COc1ccccc1-c1ccc(=O)n(CC(=O)NCC2CCCO2)n1 (configuration not stated) | 7 | -5 | 0 | -3 | -9 | -2 | i | -5
CCOC(=O)c1ccc(NC(=O)N2CCc3ccccc3C2)cc1 | -2 | 6 | 2 | -13 | 1 | 10 | i | -4
Cc1ccc(-c2cc(C(=O)Nc3cc(C)ccc3C)[nH]n2)c(O)c1 | 3 | 4 | 8 | -11 | . | -2 | i | -28
O=C(/C=C\c1ccccc1)Nc1nccs1 | -2 | -2 | -3 | -21 | 2 | 0 | i | -226
S=C(NCc1ccccc1)C(=S)NCc1ccccc1 | . | -2 | -4 | -20 | . | . | . | 0
CC(C)OP(=O)(OC(C)C)C(Nc1ccccc1)c1ccc2c(c1)OCO2 (configuration not stated) | 3 | -4 | -2 | 6 | 2 | -7 | i | -8
CCCCNC(=O)c1sc(=S)n2c1[nH]c(=O)c1ccccc12 | 18 | -3 | -2 | -7 | 27 | -1 | i | 9
CCc1cccc(C)c1NC(=O)c1cc(C)oc1C | -6 | -5 | -1 | -7 | -3 | -4 | i | .
CCCc1cc(=O)[nH]c2nnc(SCC(=O)Nc3nnc(SCC)s3)n12 | . | 1 | 2 | 3 | 9 | . | i | -15
Cc1cc(NC(=O)c2cc3ccccc3o2)cc(C)c1OCC(=O)N1CCOCC1 | -12 | -2 | -2 | -4 | -7 | -12 | i | -20
Cc1nc(Nc2ccccc2)sc1C(=O)c1ccc(F)cc1 | -13 | -4 | -5 | -1 | . | 4 | i | -14
Cc1ccc2nc(-c3ccccc3)cc(C(=O)N3CCc4ccccc4C3)c2c1 | 8 | -5 | 1 | -4 | 40 | 9 | i | 3
O=C(CSc1ccc(-c2ccco2)nn1)NCc1ccc(F)cc1 | -5 | -1 | 1 | -6 | . | 21 | i | -76
COc1cccc(C(=O)NC2=NCCS2)c1OC | 2 | 5 | 0 | 3 | -2 | -9 | i | -93
Nc1ncnc2c1ncn2[C@@H]1O[C@H](C(=O)N2CCC(F)(F)CC2)[C@@H](O)[C@H]1O | . | -2 | 3 | -11 | . | . | . | 20
N=C1C(c2nc(-c3ccc(Cl)cc3)cs2)=C(O)CN1NC(=O)c1ccc(O)cc1 | -2 | -3 | 0 | -7 | -2 | 8 | i | 0
O=C(NCc1ccccn1)c1ccc(-c2ccccc2)cc1 | 2 | 2 | 0 | . | 1 | -7 | i | 10
O=C(Nc1c(C(=O)N2CCOCC2)cnn1-c1ccccc1)c1cccc(F)c1 | 4 | 1 | 5 | -8 | -1 | 5 | i | 3
O=C(CCc1nc2ccccc2c(=O)[nH]1)Nc1nnc(SCc2ccccc2)s1 | . | -4 | 1 | . | -7 | . | i | -42
COc1cccc(C(=O)NCC(=O)N/N=C/c2c(C)[nH]c3ccccc23)c1 | -1 | 0 | 1 | 2 | 18 | 15 | i | -7
COc1cc(-c2nnc(SCC(=O)N3CCOCC3)o2)cc(OC)c1OC | 0 | 5 | 6 | -19 | . | -1 | i | 9
O=C(C[n+]1ccc2ccccc2c1)c1ccc(NC(=O)c2ccccc2)cc1 | -1 | -3 | -1 | . | 9 | -1 | . | 6
SMILES | PABP polyA inh | MT1-MMP act inh | MT1-MMP act inh RFP | Yeast UUG start | CSC inhib | eIF4H inh | Rce1 inh | HIV Env fusion | others
CC(C)CCn1c(Oc2ccc(Cl)cc2)nc2c1c(=O)n(C)c(=O)n2C | -3 | 1 | -5 | . | -10 | -2 | i | .
O=C(c1cccs1)N1C[C@H](n2cc(C3CC3)nn2)[C@@H](O)C[C@@H]1c1ccccc1 | . | 1 | 2 | -2 | . | . | . | -17
O=C(c1ccccc1F)N1CCN(Cc2ccc3c(c2)OCO3)CC1 | 7 | -1 | -4 | -12 | -11 | 18 | i | 15
O=c1[nH]c(CN2CCN(Cc3ccc4c(c3)OCO4)CC2)nc2ccccc12 | 14 | 4 | 2 | 4 | -2 | 2 | i | .
CCn1nnnc1SCC(=O)NC1CCCC1 | 1 | -2 | -2 | -12 | -15 | -4 | i | .
C/C(=N\NC(=O)CN1CCOCC1)C(C)(C)C | -12 | 5 | 0 | 3 | -8 | -8 | i | .
Cn1c(=O)c(C(=O)CN2CCN(S(=O)(=O)c3ccccc3)CC2)c(N)n(Cc2ccccc2)c1=O | -5 | -1 | 1 | . | 19 | -8 | i | -20
Cc1ccc(OCC(=O)Nn2cnc3ccccc32)cc1 | 5 | 2 | 0 | -5 | -6 | 2 | i | -24
Cc1cc(NC(=O)C(C)SCC(=O)OCc2ccc(Cl)cc2Cl)no1 (configuration not stated) | . | 2 | 4 | 1 | -13 | . | . | .
CCCn1c(=O)c(C(=O)NNC(=O)c2ccccc2[N+](=O)[O-])c(O)c2ccccc21 | -9 | 1 | 2 | -9 | -9 | 0 | . | 9
Cc1c(Cl)c([N+](=O)[O-])nn1Cc1ccc(C(=O)N/N=C\c2cc(Cl)ccc2O)o1 | -1 | 0 | -8 | -14 | 106* | 8 | i | .
Cc1cc(C)c(S(=O)(=O)NCc2nc3nc(C)cc(C)n3n2)c(C)c1 | 0 | -1 | 1 | -19 | -6 | -4 | i | -35

By substructure, the compounds so far with a thiophene ring, fused or not
SMILES | PABP polyA inh | MT1-MMP act inh | MT1-MMP act inh RFP | Yeast UUG start | CSC inhib | eIF4H inh | Rce1 inh | HIV Env fusion | others
Cc1ccc(CN(C)C(=O)c2cc(Br)c(Br)s2)o1 | 5 | -2 | 0 | -5 | 4 | 6 | . | 15
O=S(=O)(c1cccs1)N1CCN(c2ccccc2F)CC1 | 12 | -2 | -3 | -19 | -20 | -2 | i | -5
Cc1cccc(C)c1NC(=S)/C(=C(\[O-])c1cccs1)[n+]1ccccc1 | 4 | 2 | 2 | -20 | -3 | -1 | i | 15
O=C(c1cccs1)N1C[C@H](n2cc(C3CC3)nn2)[C@@H](O)C[C@@H]1c1ccccc1 | . | 1 | 2 | -2 | . | . | . | -17
